ALR H2O2 inh: blocks human ALR sulfhydryl oxidase activity; inhibition, % (test concentration not listed); P55789; 3.8% of 290,000 active; AID 485317; purified ALR, DTT oxidation, H2O2 HRP-luminol luminescence;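 active = mean and each replicate at 75% or more; inconclusive = only one of the two met; inactive = neither met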;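 note: stock transfer was 7.5 nL into about 7.5 µL; 0% = neutral wells and 100% = wells with inactivated enzyme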
LANA-H2B inh: blocks KSHV LANA binding to histone H2A/H2B | cell-free LANA-H2A/H2B peptide, fluorescence polarization | inhibition, % (no concentration beside the values) | 0.6% of 320,000 active | AID 2629; in the data active = inhibition mostly above about 10%, no sharp cut-off; inactive = mostly below about 6.7%;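 note: stock transfer was 7.5 nL into about 10 µL; 0% = median of vehicle wells and 100% = median of positive control wells; one replicate is shown; the record names a cut of 25% in any replicate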
Vif A3G: inhibitors of Vif binding to APOBEC3G peptide, primary screen, biochemical, TR-FRET, GST-Vif 1-94, biotin-A3G peptide, dose response retest (AID 1117319) | TR-FRET GST-Vif / biotin-A3G peptide binding; higher % means a stronger effect; test concentration not given here; strong numbers were not always called active | inhibition, %; hits with a dose series show IC50 in µM | 0.57% of 260,000 active;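 active = above the screen mean plus three standard deviations and confirmed in dose response; inconclusive = results disagree or hit not tested in dose response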;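 note: Vif residues 1-94 fused to GST binding biotinylated APOBEC3G peptide 110-148; 0% = full assay without inhibitor and 100% = GST in place of GST-Vif; retest series ran down from 100 µM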
Calb FLC: affects C. albicans growth with fluconazole | C. albicans CaCi-2 (fluconazole-resistant clinical isolate) + fluconazole, Alamar Blue growth, 48 h | growth inhibition, % (test concentration not listed) | 0.57% of 300,000 active;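 active = most replicates above 75%; inconclusive = exactly half above 75%; inactive = most below 75%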;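 note: all wells also contain fluconazole at 8 µg/ml as a sub-toxic cotreatment; 0% = median of DMSO wells and 100% = median of geldanamycin control wells; wells of about 8 µL received 7.5 nL stock; the first replicate is given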
RanGTP-Imp inh: disruptors of Ran-importin-beta complex formation – biochemical, FRET, CFP-Ran, YFP-importin-beta, homogeneous, primary screen; cell-free CFP-Ran/YFP-importin-beta FRET ratio; inhibition, % (test concentration not listed); 1.1% of 300,000 active; AID 2216;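 active = most replicates above 15%; inconclusive = exactly half above 15%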;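 note: 0% = DMSO wells and 100% = Ran loaded with GDP instead of GTP; wells of about 40 µL received 100 nL stock; the first replicate is given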
Beta2AR agonist: agonists of human beta-2 adrenergic receptor inducing internalization. 0.43% of 340,000 active. AID 504454. response, % (concentration not given with the values). Am2.2-beta2AR cells, FAP receptor internalization, flow cytometry; reference of the scale not given here. P07550;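 active = response above a set limit, near 3 SD of response in nonfluorescent compounds, cut at about 42% in these data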;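 note: stock transfer was 100 nL into about 11 µL; a reference agonist was the positive control; negative values mostly stem from fluorescent compounds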
Target sequence (P07550 whole entry, looked up): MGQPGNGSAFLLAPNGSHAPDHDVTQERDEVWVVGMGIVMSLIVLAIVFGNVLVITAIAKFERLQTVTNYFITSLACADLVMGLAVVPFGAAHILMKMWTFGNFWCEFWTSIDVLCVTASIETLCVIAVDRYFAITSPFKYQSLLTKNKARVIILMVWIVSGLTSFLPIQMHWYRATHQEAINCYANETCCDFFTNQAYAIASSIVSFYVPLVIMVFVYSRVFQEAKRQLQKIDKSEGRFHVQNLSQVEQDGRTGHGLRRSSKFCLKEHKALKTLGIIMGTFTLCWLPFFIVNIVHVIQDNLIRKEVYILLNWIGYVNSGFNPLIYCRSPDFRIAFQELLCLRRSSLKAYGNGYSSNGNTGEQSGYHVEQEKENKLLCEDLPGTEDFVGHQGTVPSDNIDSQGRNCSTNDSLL
HNF4A DNA FP: change in binding of human HNF4 alpha to DNA | P41235 | HNF4a-FITC DNA binding, fluorescence polarization, 1 h | activity change, % at 10 µM | 0.3% of 360,000 active; in the data active = activity change above about 30%, passing the limit was not always enough;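 note: controls were the assay level and a saturating level of protein; the project sought stronger binding though the title names inhibitors; some compounds called inactive have numbers as strong as hits; positive values seem to mean higher polarization but the record does not say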
Target sequence (P41235 whole entry, looked up): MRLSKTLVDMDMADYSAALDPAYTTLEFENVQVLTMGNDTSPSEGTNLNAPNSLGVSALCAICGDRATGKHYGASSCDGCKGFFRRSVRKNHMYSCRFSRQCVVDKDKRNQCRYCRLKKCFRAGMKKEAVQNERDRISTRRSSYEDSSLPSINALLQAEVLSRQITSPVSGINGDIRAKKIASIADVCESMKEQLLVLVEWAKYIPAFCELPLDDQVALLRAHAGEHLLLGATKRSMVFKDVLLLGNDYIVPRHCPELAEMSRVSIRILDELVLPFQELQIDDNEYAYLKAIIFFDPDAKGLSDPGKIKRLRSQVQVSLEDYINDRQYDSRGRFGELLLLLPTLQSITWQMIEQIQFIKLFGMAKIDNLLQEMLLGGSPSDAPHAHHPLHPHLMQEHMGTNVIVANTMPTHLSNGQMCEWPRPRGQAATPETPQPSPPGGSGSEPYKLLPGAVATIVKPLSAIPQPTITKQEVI
* = called active by the depositor; ? = inconclusive; nt = not tested or not shown.

Second line of a record: ALR H2O2 inh, LANA-H2B inh, Vif A3G, Calb FLC, RanGTP-Imp inh, Beta2AR agonist, HNF4A DNA FP
> CCc1nnc(NC(=O)C2CCCN(c3nc4ccccc4s3)C2)s1 (configuration not stated)
→ -10, 0.7, 0%, 0, 2.3, 1, 5.7
> O=C(Nc1cc(C(F)(F)F)ccc1N1CCCCC1)c1ccc(Br)o1
→ -7, 3.7, 0%, 5, 4.4, 3, -1.5
> COCCCn1c(=O)c2ccccc2n(Cc2ccc(C)cc2)c1=O
→ 3, 0.9, 10%, 7, -0.2, -2, -2.0
> Cc1ccc(-n2[nH]c(=O)c3cccnc32)cc1
→ 97*, 4.0, 68%, 23, 5.8, 8, 5.1
> c1cc[n+](CCCC[n+]2ccccc2)cc1
→ -22, 3.7, nt, 32, 2.8, 1, -2.6
> O=C1Nc2ccc(Cl)cc2[C@@](C#CC2CC2)(C(F)(F)F)O1
→ -10, -5.8, -7%, -16, 1.1, nt, nt
> Cc1ccccc1CN1[C@@H](CC2CCCCC2)COCCS1(=O)=O
→ nt, 1.7, nt, 2, ?, 5, -4.3
> O=C(Nc1ccccc1)C1CCCN1C(=O)Nc1ccccc1[N+](=O)[O-] (configuration not stated)
→ -2, -2.0, -5%, 12, -0.4, 1, -0.9
> Cc1cc(OCCn2cc(/C(N)=N/O)c3ccccc32)ccc1Cl
→ 10, -6.6, -1%, 14, -3.2, 7, -2.5
> N#C/C(=C\c1c[nH]c2ccccc12)C(=O)NC1CCCC1
→ 96*, 2.8, 14%, -7, 2.7, 21, -1.2
> CC(Oc1cccnc1[N+](=O)[O-])C(=O)Nc1cccc(Cl)c1 (configuration not stated)
→ nt, 1.2, 1%, nt, nt, 2, 0.0
> COc1ccc2o/c(=N\O)c(C(=O)Nc3ccc(C)cc3)cc2c1
→ nt, nt, -1%, 57, 3.7, 7, -1.9
> CCOC(=O)Cc1nn(Cc2nc(-c3ccc(C)cc3)cs2)c(=O)c2ccccc12
→ -1, -1.1, -13%, 1, ?, -7, 0.2
> COc1ccc(Cl)cc1NC(=O)NC(C)C(C)(C)C (configuration not stated)
→ -7, 4.4, 28%, -15, 3.0, -8, 0.3
> Cc1ccc(SC[C@H](CC(C)C)N2CCN(CCc3ccccc3)CCC2=O)cc1
→ nt, nt, nt, -19, -8.2, -5, 0.5
> CCC(CO)NC1=CC(=O)CCC1 (configuration not stated)
→ -12, 5.2, 0%, 18, 9.0, 12, -4.7
> COc1cccc(-n2nnnc2SCC(=O)Nc2cccc(NC(C)=O)c2)c1
→ 0, -10, -5%, ?, -0.3, -4, 1.3
> Fc1ccc(C(CCNCc2cccs2)c2ccco2)cc1 (configuration not stated)
→ -46, -4.1, -8%, 1, -0.4, 1, 0.7
> CCNC(=S)NNC(=S)NCc1ccccc1
→ 50, -12, 1%, 7, 3.6, -5, -1.1
> CCN(c1ccccc1)S(=O)(=O)c1cccc(C(=O)N(C)CCOc2ccccc2)c1
→ -4, 1.9, -4%, -5, -5.2, 2, -1.2
> O=C1CCN(C(=O)Nc2ccccc2Cl)N1
→ 3, 3.9, 3%, 2, 2.2, -2, -1.7
> O=C(CN1C(=O)NC2(CCCc3ccccc32)C1=O)NCc1cccs1 (configuration not stated)
→ nt, 1.6, 13%, nt, nt, -7, -0.8
> COc1ccc(NC(=O)c2ccc3ccccc3c2)cc1NS(=O)(=O)c1ccc(F)cc1
→ 1, 2.5, 3%, 13, 0.3, 12, 5.4
> Cc1ccnc(N2CCC(C(=O)Nc3cccc(C(F)(F)F)c3)CC2)n1
→ 16, -4.9, ?, -2, -0.7, -1, -1.6
> O=C(CSc1n[nH]c(-c2cccs2)n1)N1CCCC1
→ 0, -1.0, nt, nt, nt, 4, 1.0
> C=CCn1c(SCC(=O)N2CCCCC2)nnc1-c1ccncc1
→ 0, -2.9, nt, 1, 36*, -7, 3.8
> CCC/C(=N\NC(=O)CNC(=O)/C=C/c1ccco1)c1ccccc1
→ 2, 0.2, -5%, 2, -5.0, -12, -2.4
> CC12CCC(C)(c3nc4ccccc4nc31)C2(C)C
→ 2, -3.5, 2%, 0, ?, -8, 4.7
> CCc1c(SCCC(=O)O)nc2ccccc2c1C
→ 14, 3.0, -12%, 65, -0.7, -5, 0.7
> CC(C)c1ccc(NC(=O)CSc2nc(=O)n(CCCN3CCOCC3)c3c2CCC3)cc1
→ 98*, 11, -1%, 4, 2.4, 7, 1.0
> O=C(Nc1cccc(C(F)(F)F)c1)c1ccco1
→ 1, 1.0, -4%, -2, 2.8, -24, -2.8
> COc1ccccc1C(=O)N/C(=C\c1cn(S(=O)(=O)N(C)C)c2ccccc12)C(=O)NCCN1CCOCC1
→ -2, 1.5, nt, 39, 0.5, -2, 0.3
> Cc1ccccc1OCc1nc(-c2ccc(-n3cccc3)cc2)no1
→ 5, 5.9, 0%, 2, -3.2, -7, -3.4
> C#CCOC(=O)c1ccccc1C(=O)OCC#C
→ -2, -0.4, 4%, 5, 1.7, 1, -1.1
> O=C(O)c1cc(NN=Nc2ccc(Br)cc2)cc([N+](=O)[O-])c1
→ 0, 0.9, 21%, -9, -0.3, 6, -0.1
> Cn1cccc1CNC1CCCCC1
→ 20, 0.7, 8%, -6, 1.5, 4, -2.1
> CCOC(=O)Cc1nn(Cc2ccc(Cl)cc2)c(=O)c2ccccc12
→ -3, -1.9, -2%, -8, ?, 5, -1.8
> CC(=O)c1ccc(OCCCC(=O)NCCc2ccccc2)cc1
→ -16, 4.7, nt, -5, 0.9, -9, 1.5
> O=C(NNC(=O)c1ccccc1Cl)c1ccccc1Cl
→ -7, 2.9, -2%, 4, 0.2, -3, 0.3
> CCN1C(=O)[C@H]2[C@@H](c3ccc(-c4ccccc4)c(OC)c3)N[C@@](CC(C)C)(C(=O)OC)[C@H]2C1=O
→ -1, -4.8, nt, nt, nt, 6, -4.7
> O=C(NCC(=O)N(c1ccc(Cl)cc1)C(C(=O)NC1CCCC1)c1cccnc1)c1ccco1 (configuration not stated)
→ 2, -5.5, nt, 16, 0.7, 9, 3.0
> CC1=NN(c2ccccc2)C(=O)/C1=C/C=C/c1ccccc1
→ 1, 0.9, 5%, 14, -2.5, 32, -2.2
> Cc1cccn2c(=O)c3cc(C(=O)NC4CCCC4)sc3nc12
→ 36, -3.0, -2%, -5, -0.8, -15, -2.2
> COC(=O)[C@H](Cc1ccc(O)cc1)NC(=O)Cn1cnc(C(=O)Nc2ccc(C)c(C)c2)n1
→ nt, nt, -5%, nt, nt, 5, -3.2
> Cc1ccccc1N1CCN(C2CCCN(C(=O)c3cc[n+]([O-])cc3)C2)CC1 (configuration not stated)
→ 14, -4.2, nt, 23, 1.1, 2, 0.4
> Cc1ccc(C(=O)NNC(=O)c2cccc(S(=O)(=O)N3CCOCC3)c2)cc1
→ 6, -3.2, nt, nt, nt, 0, 2.5
> CN(C(=O)c1cccc(NC(=O)C2CCN(C(=O)OC(C)(C)C)CC2)c1)C1CCCCC1
→ 0, 0.6, nt, nt, nt, 6, -0.9
> Cc1noc(C)c1COc1ccccc1C(=O)N1CCN(S(=O)(=O)c2cccc([N+](=O)[O-])c2)CC1
→ -14, 0.3, -2%, nt, nt, 2, -0.7
> C#Cc1ccc([C@H]2C=C(C(=O)O)O[C@@H](OCCCCO)C2)cc1
→ 17, -4.9, nt, 8, 1.0, 3, 0.5
> CC1=NC2(CCCc3c2no[n+]3[O-])N(O)C1(C)C (configuration not stated)
→ 3, -6.5, 1%, 16, 2.1, -4, -1.6
> O=C(Nc1ccc(Br)cc1F)C1CCCN(S(=O)(=O)c2cnc[nH]2)C1 (configuration not stated)
→ 13, 2.6, -2%, 3, 2.7, -1, 1.3
> CC1CCN(c2ccccc2NC(=S)NC(=O)c2ccco2)CC1
→ 8, 3.6, 2%, 11, -11, -6, -2.0
> CN(C)S(=O)(=O)c1cccc(NC(=O)COC(=O)c2ccc3c(c2)OCO3)c1
→ -1, 1.7, 22%, -6, 4.1, 2, 2.5
> COc1cc2c(cc1OC)n(CC(=O)NC1CCCCCC1)n1c(C)cc(=O)nc21
→ -5, 0.9, -8%, -2, -2.1, 13, 1.9
> O=C(NNC1CC(=O)N(c2ccc(Cl)cc2)C1=O)c1ccccc1Cl (configuration not stated)
→ -1, -1.4, nt, 16, 1.7, 5, -7.5
> CCS(=O)(=O)N1CCCC(C(=O)Oc2ccc(Br)cc2)C1 (configuration not stated)
→ 11, -1.3, nt, 3, 4.2, 9, -2.4
> CC1(C)Cc2ccccc2-c2nnc(-c3ccccn3)n21
→ -5, 7.6, 4%, -1, ?, 0, -2.4
> NC1=NC2(CCN(Cc3ccccc3)CC2)n2c(nc3ccccc32)N1
→ -4, 1.3, 1%, -2, ?, -7, 5.8
> Cc1cccc(C(=O)NCC(=O)OCC(=O)c2ccc(C)s2)c1
→ -3, 11, -14%, nt, nt, -2, -3.1
> CCCCC(=O)NC(c1ccc([N+](=O)[O-])cc1)c1c(O)ccc2ccccc12 (configuration not stated)
→ -18, -2.5, nt, 18, 2.1, 21, 0.3

Further records
Second line of a record: ALR H2O2 inh, LANA-H2B inh, Vif A3G, Calb FLC, RanGTP-Imp inh, Beta2AR agonist, HNF4A DNA FP
> CCC(C(=O)NCc1ccco1)n1nc(C)c2c(C)n(-c3ccccc3)nc2c1=O (configuration not stated)
→ -2, 4.5, nt, -2, 0.2, 2, -2.8
> CC(C(=O)Nc1ccccc1Cl)N(c1ccccc1)S(C)(=O)=O (configuration not stated)
→ 2, -1.1, 27%, -10, ?, -2, -0.2
> CCc1ccc(S(=O)(=O)Nc2cc3c(cc2N2CCCCC2)n(C)c(=O)c(=O)n3C)cc1
→ -10, 1.8, nt, 13, 2.7, 2, 8.4
> COc1cccc2cc(-c3nc4ccccc4[nH]3)c(=O)oc12
→ -18, -2.9, nt, 2, -17, 20, -0.8
> CCOc1ccc(S(=O)(=O)N(CC(=O)N/N=C/c2ccc(-c3ccc([N+](=O)[O-])cc3)o2)c2ccccc2)cc1
→ -2, -4.0, 7%, 24, -50, -4, -9.8
> COc1cccc(CNC(=O)CCC(=O)N2Cc3cccc(OC)c3Oc3ncccc32)c1OC
→ -4, 1.7, nt, 15, 0.8, -9, 2.5
> COc1ccc(C(=O)N2CCCC(CCC(=O)N3CCN(c4ccccn4)CC3)C2)cc1 (configuration not stated)
→ -3, -4.8, 3%, -4, -0.7, -5, -1.6
> COc1ccc(OCc2nnc(SCC(=O)NC3CCCCC3)o2)cc1
→ nt, 4.5, nt, 4, -1.2, 1, -0.1
> Cc1ccc(-c2noc(-c3ccccc3C(=O)N3CCCC3)n2)cc1
→ -1, -6.1, -1%, -1, 5.3, -2, 1.8
> Cc1cccn(Cc2c(Cl)cccc2Cl)c1=O
→ 2, -5.9, nt, 13, -0.7, 4, -0.2
> O=C(NNC(=O)c1cccc2ccccc12)c1ccc(Cl)cc1Cl
→ nt, nt, -7%, nt, nt, 4, -1.3
> O=C(Nc1cccc(C(=O)O)c1)Nc1ccc2c(c1)OCO2
→ -5, -2.0, nt, 0, 2.2, 2, -5.2

Screens deposited in PubChem by several laboratories.
